CYP2C19 activ – activators of human cytochrome P450 2C19 | AID 1025 | P33261 | recombinant CYP2C19, luciferin-H EGE luminescence; stronger effect = higher value; 0 = fully inhibited enzyme, 1 = untreated enzyme | activation factor at 5 µM | 96,000 tested, under 10 active;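 active = activation factor of at least 2 at 5 µM in the primary screen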;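 also: 0 = wells with 2.5 mM tranylcypromine and 1 = vehicle-only wells; values of inactives mirror those of a sister screen read the other way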
Target sequence (P33261 whole entry, looked up): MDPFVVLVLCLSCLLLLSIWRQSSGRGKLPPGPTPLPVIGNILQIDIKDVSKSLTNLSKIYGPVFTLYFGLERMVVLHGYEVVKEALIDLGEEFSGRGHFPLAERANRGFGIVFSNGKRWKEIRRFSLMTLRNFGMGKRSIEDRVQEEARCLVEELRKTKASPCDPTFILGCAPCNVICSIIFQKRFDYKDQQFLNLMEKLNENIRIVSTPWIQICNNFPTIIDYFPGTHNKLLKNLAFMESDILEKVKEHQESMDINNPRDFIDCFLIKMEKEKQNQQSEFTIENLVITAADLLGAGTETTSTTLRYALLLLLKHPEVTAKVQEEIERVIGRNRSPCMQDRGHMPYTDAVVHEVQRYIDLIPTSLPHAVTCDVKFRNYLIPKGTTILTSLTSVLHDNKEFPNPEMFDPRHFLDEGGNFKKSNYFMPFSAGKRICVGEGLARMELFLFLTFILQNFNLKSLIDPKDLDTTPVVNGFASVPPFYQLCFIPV
Lung fibro prol – blocks proliferation of human lung fibroblasts | LL 47 human lung fibroblast viability, ATP luminescence; stronger effect = lower value | AID 719 | viability, % at 10 µM | 85,000 tested, 1.1% active;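 active = viability at or below 50% in the single dose screen; inactive = viability above 50%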;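 also: compound exposure lasted 72 h before the ATP readout; 100% = median luminescence of untreated cell-only wells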
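Times – overnight cell rest, 72 h compound treatment at 37 °C · Test system – human lung fibroblast line LL 47, low passage · Amount – 1,150 cells in each well · Controls – cell-only wells, no compound · Doses – 0.1% DMSO in all compound wells · Measured by – CellTiter-Glo luminescence · Buffer or medium – IMEM plus 15% FBS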
CD11b adhes enh – increases human CD11b/CD18 adhesion to fibrinogen. P05107+P11215. K562 CD11b/CD18 adhesion to fibrinogen, ATPlite luminescence. activation, % at 10 µM. 93,000 tested, 0.07% active;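 active = 10 µM primary screen giving 50% or more activity, confirmed by 40% or more on retest at that dose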; also: strong numbers were not always called active
CYP2C19 inh – blocks human cytochrome P450 2C19. P33261. CYP2C19 Supersomes, luciferin-H EGE luminescence, 30 min. inhibition, % at 5 µM. 96,000 tested, 21% active. AID 778;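 active = CYP2C19 inhibition above a set limit at 5 µM in the primary screen, cut at about 50% in these data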;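 also: plate controls were negative control wells for no effect and 2.5 mM tranylcypromine positive control for full effect; values of inactives mirror those of a sister screen read the other way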
HUVEC inhibit – blocks proliferation of human endothelial cells | HUVEC proliferation, CellTiter-Glo luminescence, 72 h; stronger effect = lower value | viability, % at 10 µM (by protocol) | 86,000 tested, 1.1% active | AID 648;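 active = viability at or below 30%; inactive = viability above 30%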;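 also: 100% = median luminescence of DMSO-only cell control wells on each plate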
CD11b adhes inh – blocks human CD11b/CD18 adhesion to fibrinogen; K562 CD11b/CD18 adhesion to fibrinogen, ATPlite luminescence; Mn2+ added to activate the integrin; inhibition, % at 10 µM; P05107+P11215; 93,000 tested, 0.54% active;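 active = primary inhibition of 50% or more at 10 µM, then 40% or more on retest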; also: some results filed as inactive read as strong as hits
Numbers without * were called inactive; x = not tested or not shown.

Codes: A = CYP2C19 activ; B = Lung fibro prol; C = CD11b adhes enh; D = CYP2C19 inh; E = HUVEC inhibit; F = CD11b adhes inh
(1) CC(=O)Oc1cc(C(C)C)c(OCCN(C)C)cc1C
  A: x; B: 100; C: x; D: x; E: 97; F: x

(2) N[C@@H](Cc1cc(I)c(Oc2cc(I)c(O)c(I)c2)c(I)c1)C(=O)O
  A: x; B: 112; C: x; D: x; E: 95; F: x

(3) CNC[C@H](O)c1cccc(O)c1
  A: x; B: 91; C: x; D: x; E: 103; F: x

(4) CCC1(c2ccccc2)C(=O)NCNC1=O
  A: x; B: 94; C: x; D: x; E: 100; F: x

(5) O=C(NCC1CCCCN1)c1cc(OCC(F)(F)F)ccc1OCC(F)(F)F (stereo unspecified)
  A: x; B: 98; C: x; D: x; E: 99; F: x

(6) O=C1OCCN1/N=C/c1ccc([N+](=O)[O-])o1
  A: x; B: 101; C: x; D: x; E: 105; F: x

(7) CC(=O)OCC(=O)[C@@]1(O)CC[C@H]2[C@@H]3CCC4=CC(=O)C=C[C@]4(C)[C@H]3[C@@H](O)C[C@@]21C
  A: x; B: 94; C: x; D: x; E: 103; F: x

(8) O=C(O)c1ccccc1O
  A: x; B: 98; C: x; D: x; E: 107; F: x

(9) CCCN(CCC)S(=O)(=O)c1ccc(C(=O)O)cc1
  A: x; B: 96; C: x; D: x; E: 95; F: x

(10) CCCCN(CCCC)c1ccc(C(=O)c2ccccc2C(=O)O)c(O)c1
  A: 0.7; B: 94; C: x; D: 35; E: 90; F: x

(11) O=c1[nH]cnc2c1ncn2[C@@H]1O[C@H](CO)[C@@H](O)[C@H]1O
  A: x; B: 102; C: x; D: x; E: 94; F: x

(12) CN(CCO)CC(O)Cn1cnc2c1c(=O)n(C)c(=O)n2C (stereo unspecified) (tested in a mixture with another compound)
  A: x; B: 103; C: x; D: x; E: 103; F: x

(13) Clc1ccc(Cn2c(CN3CCCC3)nc3ccccc32)cc1
  A: x; B: 95; C: x; D: x; E: 91; F: x

(14) NCc1cccc(-n2cccn2)c1
  A: 0.7; B: 105; C: -7; D: 28; E: 88; F: 40

(15) O=C(Nc1nc(-c2ccc(S(=O)(=O)N3CCOCC3)cc2)cs1)c1ccccc1
  A: 0.9; B: 79; C: 15; D: 9; E: 83; F: -3

(16) CC(=O)OCC[N+](C)(C)C
  A: x; B: 93; C: x; D: x; E: 95; F: x

(17) O=c1c(O)c(-c2ccc(O)cc2O)oc2cc(O)cc(O)c12
  A: x; B: 95; C: x; D: x; E: 96; F: x

(18) COCCOC(=O)C1=C(C)NC(C)=C(C(=O)OC(C)C)C1c1cccc([N+](=O)[O-])c1 (stereo unspecified)
  A: x; B: 95; C: x; D: x; E: 102; F: x

(19) C[C@H]1O[C@H]1P(=O)(O)O
  A: x; B: 113; C: x; D: x; E: 99; F: x

(20) O=C(O)CCC(=O)Nc1ccc(S(=O)(=O)Nc2nccs2)cc1
  A: x; B: 104; C: x; D: x; E: 99; F: x

(21) CC(C)[N+]1(C)[C@@H]2CC[C@H]1CC(OC(=O)C(CO)c1ccccc1)C2 (stereo partly specified)
  A: x; B: 99; C: x; D: x; E: 107; F: x

(22) O=C1C(CCS(=O)c2ccccc2)C(=O)N(c2ccccc2)N1c1ccccc1 (stereo unspecified)
  A: x; B: 99; C: x; D: x; E: 106; F: x

(23) COCCCC/C(=N\OCCN)c1ccc(C(F)(F)F)cc1
  A: x; B: 94; C: x; D: x; E: 92; F: x

(24) CC(C)NCC(O)COc1ccc(CC(N)=O)cc1 (stereo unspecified)
  A: x; B: 102; C: x; D: x; E: 88; F: x

(25) CN(C(=O)C(Cl)Cl)c1ccc(OC(=O)c2ccco2)cc1
  A: x; B: 96; C: x; D: x; E: 94; F: x

An excerpt of these results, with bars between the fields:
entry | Compound | CYP2C19 activ | Lung fibro prol | CD11b adhes enh | CYP2C19 inh | HUVEC inhibit | CD11b adhes inh
15 | O=C(Nc1nc(-c2ccc(S(=O)(=O)N3CCOCC3)cc2)cs1)c1ccccc1 | 0.9 | 79 | 15 | 9 | 83 | -3
16 | CC(=O)OCC[N+](C)(C)C | x | 93 | x | x | 95 | x
17 | O=c1c(O)c(-c2ccc(O)cc2O)oc2cc(O)cc(O)c12 | x | 95 | x | x | 96 | x
18 | COCCOC(=O)C1=C(C)NC(C)=C(C(=O)OC(C)C)C1c1cccc([N+](=O)[O-])c1 (stereo unspecified) | x | 95 | x | x | 102 | x
19 | C[C@H]1O[C@H]1P(=O)(O)O | x | 113 | x | x | 99 | x
20 | O=C(O)CCC(=O)Nc1ccc(S(=O)(=O)Nc2nccs2)cc1 | x | 104 | x | x | 99 | x
21 | CC(C)[N+]1(C)[C@@H]2CC[C@H]1CC(OC(=O)C(CO)c1ccccc1)C2 (stereo partly specified) | x | 99 | x | x | 107 | x
22 | O=C1C(CCS(=O)c2ccccc2)C(=O)N(c2ccccc2)N1c1ccccc1 (stereo unspecified) | x | 99 | x | x | 106 | x
23 | COCCCC/C(=N\OCCN)c1ccc(C(F)(F)F)cc1 | x | 94 | x | x | 92 | x
24 | CC(C)NCC(O)COc1ccc(CC(N)=O)cc1 (stereo unspecified) | x | 102 | x | x | 88 | x
25 | CN(C(=O)C(Cl)Cl)c1ccc(OC(=O)c2ccco2)cc1 | x | 96 | x | x | 94 | x

(list continues)
Codes: A = CYP2C19 activ; B = Lung fibro prol; C = CD11b adhes enh; D = CYP2C19 inh; E = HUVEC inhibit; F = CD11b adhes inh
(26) Cc1cn([C@H]2C=C[C@@H](CO)O2)c(=O)[nH]c1=O
  A: x; B: 106; C: x; D: x; E: 102; F: x

(27) COc1cc(NS(=O)(=O)c2ccc(N)cc2)nc(OC)n1
  A: x; B: 101; C: x; D: x; E: 102; F: x

(28) CC1(C)S[C@@H]2[C@H](NC(=O)[C@H](N)c3ccc(O)cc3)C(=O)N2[C@H]1C(=O)O
  A: x; B: 90; C: x; D: x; E: 91; F: x

(29) CCN(CC)CC#CCOC(=O)C(O)(c1ccccc1)C1CCCCC1 (stereo unspecified)
  A: x; B: 89; C: x; D: x; E: 92; F: x

(30) CNCCC(Oc1ccc(C(F)(F)F)cc1)c1ccccc1 (stereo unspecified)
  A: x; B: 88; C: x; D: x; E: 76; F: x

(31) OC(CCN1CCCCC1)(c1ccccc1)C1CCCCC1 (stereo unspecified)
  A: x; B: 98; C: x; D: x; E: 96; F: x

(32) CC(=O)O[C@]1(C(C)=O)CC[C@H]2[C@@H]3C=C(C)C4=CC(=O)CC[C@]4(C)[C@H]3CC[C@@]21C
  A: x; B: 96; C: x; D: x; E: 112; F: x

(33) COc1ccccc1N1CCN(CC(O)COc2cccc3ccccc23)CC1 (stereo unspecified)
  A: x; B: 94; C: x; D: x; E: 89; F: x

(34) C[N+]12CCC(CC1)C(OC(=O)C(O)(c1ccccc1)c1ccccc1)C2 (stereo unspecified)
  A: x; B: 94; C: x; D: x; E: 92; F: x

(35) Cc1ccccc1C(OCCN(C)C)c1ccccc1 (stereo unspecified)
  A: x; B: 94; C: x; D: x; E: 89; F: x

A portion of the library, so the mix of outcomes need not match the whole.
